From PubChem BioAssay
AF4-AF9 inh = inhibitors of AF4 peptide binding to AF9, primary screen, biochemical, AlphaScreen, biotin-AF4 peptide, FLAG-AF9, single point. actives 0.47% (n = 350,000). Protein AF-9 (Homo sapiens), P42568. AID 651704, 2012. inhibition, % at 10 µM;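 active means every replicate reaching a set inhibition limit, whatever the replicate mean, cut at about 25% in these data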;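 further: 0% = plate neutral control median and 100% = total signal loss; the record names both 10 and 1 µM as test concentration; the first replicate is given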
Beta apoptosis = inhibitors of cytokine-induced beta cell apoptosis, primary screen, luminescence | protection from apoptosis, % (test concentration not listed) | actives 0.8% (n = 300,000) | AID 435005, 2010 | INS-1E cytokine-induced death, ATP luminescence, 48 h; percent of positive-control rescue, neutral wells zero;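 active means all replicates at 75% or more, or half of them and the mean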;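 further: 0% = cytokine-treated negative control wells and 100% = positive control rescue; higher means more ATP so stronger rescue from cytokine killing; wells of about 40 µL received 100 nL stock; the first replicate is given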
A1 inh = caspase 3/7 activation in MEF A1-2A-BIM cells, primary screen, A1 inhibitor project, cell-based, luminescence, HTS. AID 2462, 2010. caspase activation, % (no concentration beside the values). Caspase-Glo 3/7 luminescence, 3 h; percent of clofoctol response, vehicle zero. actives 0.066% (n = 330,000);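 active means over half of replicate activation scores above 10%, or exactly half above 10 with the replicate mean above 10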;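 further: wells of about 30 µL received 50 nL stock; many hits fall short of the cut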
LANA-H2A inh = blockers of LANA interaction with H2A/H2B – biochemical, FP readout, HTS, primary screen; Protein LANA1 (Human herpesvirus 8 type P (isolate GK18)), Q9QR71; cell-free LANA-H2A/H2B peptide, fluorescence polarization; inhibition, % (concentration not given with the values); actives 0.6% (n = 320,000); in the data active means inhibition mostly above about 10%, no sharp cut-off; inactive means mostly below about 6.7%;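 further: stock transfer was 7.5 nL into about 10 µL; 0% = median of vehicle wells and 100% = median of positive control wells; one replicate is shown; the record names a cut of 25% in any replicate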
Target sequence (Q9QR71 whole entry, looked up): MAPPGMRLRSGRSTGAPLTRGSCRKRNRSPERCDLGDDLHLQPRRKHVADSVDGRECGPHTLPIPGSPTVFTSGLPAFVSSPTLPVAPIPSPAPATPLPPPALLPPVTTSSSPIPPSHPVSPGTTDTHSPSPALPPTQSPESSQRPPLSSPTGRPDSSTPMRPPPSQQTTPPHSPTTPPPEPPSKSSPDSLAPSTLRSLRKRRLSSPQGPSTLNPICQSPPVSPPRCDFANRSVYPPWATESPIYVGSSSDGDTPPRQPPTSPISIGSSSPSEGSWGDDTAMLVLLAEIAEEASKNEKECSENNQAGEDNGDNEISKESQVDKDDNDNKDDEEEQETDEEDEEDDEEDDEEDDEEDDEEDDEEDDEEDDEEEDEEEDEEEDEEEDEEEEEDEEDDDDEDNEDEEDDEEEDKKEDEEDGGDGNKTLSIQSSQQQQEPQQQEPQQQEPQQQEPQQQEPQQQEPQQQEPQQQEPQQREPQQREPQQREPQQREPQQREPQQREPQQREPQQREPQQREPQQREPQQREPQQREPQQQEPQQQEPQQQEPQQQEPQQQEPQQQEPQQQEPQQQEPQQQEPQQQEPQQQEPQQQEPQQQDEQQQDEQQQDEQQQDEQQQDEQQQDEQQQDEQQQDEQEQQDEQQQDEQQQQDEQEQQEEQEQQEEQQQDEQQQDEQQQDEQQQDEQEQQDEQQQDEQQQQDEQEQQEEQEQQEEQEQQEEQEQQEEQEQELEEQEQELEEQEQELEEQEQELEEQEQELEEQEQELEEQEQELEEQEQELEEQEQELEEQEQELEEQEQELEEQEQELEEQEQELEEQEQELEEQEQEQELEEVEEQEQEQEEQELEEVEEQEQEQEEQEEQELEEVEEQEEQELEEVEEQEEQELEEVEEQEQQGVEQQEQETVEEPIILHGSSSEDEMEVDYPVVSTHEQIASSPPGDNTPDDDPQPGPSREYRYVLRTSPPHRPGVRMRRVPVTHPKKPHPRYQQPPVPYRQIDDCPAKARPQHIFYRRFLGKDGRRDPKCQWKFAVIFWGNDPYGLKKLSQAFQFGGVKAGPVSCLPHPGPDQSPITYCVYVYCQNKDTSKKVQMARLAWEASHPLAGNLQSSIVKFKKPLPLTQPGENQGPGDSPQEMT
An asterisk follows results filed as active; . = not tested or not shown. This is a subset; count on the stated rates, not on these rows.

Order of results: A1 inh	Beta apoptosis	LANA-H2A inh	AF4-AF9 inh
CC(=O)C[C@H](O)CC(=O)[C@H]1OC(=O)[C@H](C)C/C=C\Cc2ccccc21
→ -3.8	-0.8	-1.0	.
O=C(NNC(=O)c1cc(Br)ccc1O)c1csc(N2CCOCC2)n1
→ -0.4	10.3	1.6	.
CC(C)NC(=O)N(C)C[C@H]1Oc2ccc(NC(=O)Nc3ccccc3)cc2C(=O)N([C@H](C)CO)C[C@@H]1C
→ 0.2	-7.6	-5.5	.
CCOC(=O)[C@@H]1[C@H]2COc3ccccc3[C@@H]2N2C(=O)N(c3cccc(F)c3)C(=O)[C@@]12C
→ -2.3	-3.9	-0.9	.
CN1CCN(C2CCN(c3ccc(Nc4nnc(Cl)c(Nc5ccccc5S(C)(=O)=O)n4)c(OC(CF)CF)c3)CC2)CC1
→ 0.2	1.1	4.6	.
O=C(COC(=O)c1ccc([N+](=O)[O-])s1)NNC(=O)c1ccccc1
→ 0.4	-1.7	-1.6	.
O=c1c2cc(F)ccc2sn1-c1ccc(F)cc1
→ -13.5	17.8	0.2	.
Cc1cccc(NC(=O)/C(=C\c2ccc([N+](=O)[O-])o2)NC(=O)c2ccc(Cl)cc2)c1
→ 1.7	-3.3	2.2	.
O=C(Cn1ccc(NC(=O)OCc2ccccc2)nc1=O)NCc1nc2ccccc2[nH]1
→ 0.7	-1.9	-4.7	.
CCN1C(=NCCOC)N[C@@H](c2cccc(C(F)(F)F)c2)C(C(=O)OC)=C1C
→ 2.2	1.8	-0.9	.
Cc1ccc(C(=O)O)cc1[N+](=O)[O-]
→ 0.2	-3.1	-5.2	.
N#Cc1ccc(-c2ccc(C3Nc4ccccc4C(=O)N3O)o2)cc1 (stereo not given)
→ -0.2	14.5	15.4	.
CC(C)n1cnc2c(NCc3ccccc3)cc(OCC3CCN(C)CC3)cc21
→ 0.4	-8.5	-3.8	.
C[C@@H]1CC[C@]2(C(=O)O)CC[C@]3(C)C(=CCC4[C@]56CC[C@@](O)(OC5)C(C)(C)C6CC[C@]43C)C2[C@H]1C (stereo not given in full)
→ 0.6	2.8	1.7	.
CCOC(=O)c1cccc(C2=CC(=O)C[C@H](c3ccc(OC)cc3)C2)c1
→ -0.5	-1.7	0.9	.
O=S(=O)(NCc1ccccc1Br)c1ccccc1Br
→ 0.2	-11.2	-2.5	.
CCC(=O)N(C)C[C@H]1Oc2cc(C#CCN(C)C)ccc2S(=O)(=O)N([C@H](C)CO)C[C@H]1C
→ .	.	.	-0.5
O=C(c1ccc(Cl)c(Cl)c1)N1CCC(=O)N([C@H](COCc2ccc(Cl)cc2)Cc2ccccc2)CC1
→ .	.	.	-1.3
CO[C@@H]1CN(C)C(=O)c2cc(NS(=O)(=O)c3ccccc3)ccc2OC[C@@H](C)N(Cc2cccnc2)C[C@H]1C
→ .	.	.	-0.2
C[C@H](CO)N1C[C@H](C)[C@H](CN(C)Cc2ccc(-c3ccccc3)cc2)Oc2ccc(NC(=O)NC3CCCCC3)cc2C1=O
→ .	.	.	-1.2

Record cards (already shown).
CC(=O)C[C@H](O)CC(=O)[C@H]1OC(=O)[C@H](C)C/C=C\Cc2ccccc21 in the list: A1 inh: -3.8; Beta apoptosis: -0.8; LANA-H2A inh: -1.0; AF4-AF9 inh: .
CCOC(=O)[C@@H]1[C@H]2COc3ccccc3[C@@H]2N2C(=O)N(c3cccc(F)c3)C(=O)[C@@]12C in the list: A1 inh: -2.3; Beta apoptosis: -3.9; LANA-H2A inh: -0.9; AF4-AF9 inh: .

Carrying on:
Order of results: A1 inh	Beta apoptosis	LANA-H2A inh	AF4-AF9 inh
C[C@@H]1CCCCO[C@@H](CN(C)Cc2ccc(C(=O)O)cc2)[C@H](C)CN([C@@H](C)CO)C(=O)c2cc(NS(=O)(=O)c3ccc(Cl)cc3)ccc2O1
→ .	.	.	-0.4
CCCNC(=O)N1CC(=O)N2[C@H](C1)[C@@H](c1ccc(-c3cccc(C)c3)cc1)[C@@H]2CO
→ .	.	.	-10.8
COCC(=O)Nc1ccc2c(c1)OC[C@@H](C)NC[C@@H](C)[C@@H](OC)CN(C)C2=O
→ .	.	.	-0.1
O=C1c2ccccc2C(=O)c2c1ccc(O)c2O
→ .	.	.	0.6
C[C@H]1CN([C@@H](C)CO)S(=O)(=O)c2ccc(-c3cccc(F)c3)cc2O[C@H]1CN(C)S(C)(=O)=O
→ .	.	.	0.5
CCOc1cc2c(cc1OCC)C(c1ccc(O)c(OC)c1)NCC2 (stereo not given)
→ .	.	.	6.1
C/C=C/c1ccccc1[C@@H]1[C@@H](CO)N(C(=O)NC2CCCCC2)[C@H]1C#N
→ .	.	.	-1.1
CCCNC(=O)[C@H]1[C@H](CO)[C@H]2Cn3c(cccc3=O)[C@@H]1N2C(=O)C1CCCC1
→ .	.	.	-0.6
Cc1noc(C)c1NC(=O)N(C)C[C@@H]1Oc2ccc(NS(C)(=O)=O)cc2C(=O)N([C@@H](C)CO)C[C@@H]1C
→ .	.	.	-2.2
N#C[C@@H]1[C@H](c2ccccc2-c2cccc(F)c2)[C@@H](CO)N1C(=O)C1CCC1
→ .	.	.	-2.2
O=C(C[C@@H]1CC[C@H](NC(=O)c2ccncc2)[C@H](CO)O1)Nc1ccccc1
→ .	.	.	-1.1
Fc1ccc(N2C(=S)SC(=Nc3ccccc3)C2=Nc2ccccc2)cc1
→ .	.	.	4.5
C[C@H]1CN([C@@H](C)CO)C(=O)Cc2cc(NS(=O)(=O)c3ccc(Cl)cc3)ccc2O[C@H]1CN(C)S(=O)(=O)c1cccs1
→ .	.	.	2.2
C[C@H](CO)N1C[C@H](C)[C@@H](CN(C)C(=O)Cc2cccnc2)Oc2ncc(-c3ccccc3)cc2C1=O
→ .	.	.	-2.0
CC(C)N1CCC1(C)C(=O)Nc1ccc2scnc2c1 (stereo not given)
→ .	.	.	1.5
CCC(=O)N1[C@H](CO)[C@H]2c3ccccc3N(S(=O)(=O)c3ccccc3F)C[C@H]21
→ .	.	.	-2.3
CO[C@H]1CN(C)C(=O)c2cc(NC(=O)C3CCCC3)ccc2OC[C@H](C)N(CCC(F)(F)F)C[C@@H]1C
→ .	.	.	2.4
C[C@@H]1CCCCO[C@@H](CN(C)Cc2ccncc2)[C@H](C)CN([C@@H](C)CO)C(=O)c2cc(NC(=O)c3ccncc3)ccc2O1
→ .	.	.	-2.3
CC(C)C[C@@H](CN1CCCC1CN1C(=S)NC[C@@H]1Cc1ccc(O)cc1)N1C[C@H](Cc2ccccc2)N(CC2CCCCC2)C1=S (stereo not given in full)
→ .	.	.	4.9
CC(=O)N(C)C[C@@H]1Oc2cc(-c3ccccc3)ccc2S(=O)(=O)N([C@H](C)CO)C[C@H]1C
→ .	.	.	-1.6
C[C@@H]1CCCCO[C@@H](CN(C)S(=O)(=O)c2ccc(F)cc2)[C@H](C)CN([C@@H](C)CO)C(=O)c2cc(NC(=O)Nc3cccc4ccccc34)ccc2O1
→ .	.	.	-0.4
O=C(Nc1ccc(Oc2ccccc2)cc1)c1csc([C@@H]2C[C@H](O)[C@@H](CO)O2)n1
→ .	.	.	-2.4
C[C@@H]1CN([C@@H](C)CO)C(=O)c2cc(C3=CCCC3)cnc2O[C@@H]1CN(C)S(C)(=O)=O
→ .	.	.	-7.0
COc1ccc(NC(=O)N(C)[C@H]2C[C@H]3c4[nH]c5ccccc5c4CCN3C(=O)[C@H]2CO)cc1
→ .	.	.	-0.1
CN1C(=O)c2cc(NC(=O)Nc3cccc(Cl)c3)ccc2OC[C@@H]2O[C@H](CC(=O)NCCc3ccncc3)CC[C@H]21
→ .	.	.	2.1
CN1C[C@H]2[C@@H](c3ccccc31)[C@@H](CO)N2Cc1ccccc1
→ .	.	.	-0.3
COc1ccc(NC(=O)Nc2ccc3c(c2)[C@@H]2C[C@@H](CC(=O)NC4CCCCC4)O[C@@H](CO)[C@@H]2O3)cc1
→ .	.	.	-4.1
O=C(C[C@@H]1C[C@@H]2c3cc(NC(=O)Nc4ccccc4)ccc3O[C@@H]2[C@H](CO)O1)NCc1ccccn1
→ .	.	.	-1.1
O=C(C[C@H]1C=C[C@@H](NC(=O)Nc2cccc(F)c2)[C@@H](CO)O1)NCC1CCCCC1
→ .	.	.	0.5
CC(C)C1C(=O)N(Cc2cn(Cc3ccco3)nn2)CCS(=O)(=O)N1Cc1ccc(-c2ccc(Cl)c(Cl)c2)cc1 (stereo not given)
→ .	.	.	1.7
CC(C)CC#Cc1cnc2c(c1)C(=O)N([C@@H](C)CO)C[C@H](C)[C@@H](CN(C)Cc1ccccc1C(=O)O)O2
→ .	.	.	-1.8
COc1ccc(CN2[C@H](CO)[C@@H]3c4ccccc4NC[C@@H]32)cc1
→ .	.	.	-2.5
CC(C)NC(=O)Nc1ccc2c(c1)C(=O)N([C@@H](C)CO)C[C@H](C)[C@@H](CN(C)Cc1ccc(Oc3ccccc3)cc1)O2
→ .	.	.	1.8
O=C(N[C@@H]1CC[C@@H](CCNC(=O)C2CC2)O[C@@H]1CO)c1ccncc1
→ .	.	.	-2.2
CSCCC(c1nnnn1C1CCCC1)N1CCN(C/C=C/c2ccccc2)CC1 (stereo not given)
→ .	.	.	6.6
C[C@H]1CCCCO[C@@H](CN(C)Cc2ccc(C(=O)O)cc2)[C@@H](C)CN([C@@H](C)CO)C(=O)c2cc(NC(=O)Nc3ccc(C(F)(F)F)cc3)ccc2O1
→ .	.	.	0.9
CCC(=O)N1CCCCN2[C@H](CO)[C@@H](c3ccc(-c4cccc(C#N)c4)cc3)[C@H]2C1
→ .	.	.	-3.6
C[C@H]1CN([C@@H](C)CO)C(=O)c2ccccc2-c2ccccc2CO[C@H]1CN(C)Cc1cccc(O)c1
→ .	.	.	-1.1
COc1cccc(-c2cnc(C(O)c3ccc(Cl)c(Cl)c3)[nH]2)c1 (stereo not given)
→ .	.	.	4.5
O=C(CC(F)(F)F)N1C[C@H]2[C@@H](c3ccccc31)[C@@H](CO)N2Cc1cccnc1
→ .	.	.	-1.5
C[C@@H]1CN([C@H](C)CO)C(=O)c2cc(NC(=O)Nc3ccc4c(c3)OCO4)ccc2O[C@H]1CN(C)C(=O)Nc1ccc2c(c1)OCO2
→ .	.	.	-0.4
CCCN(C)C[C@H]1OCCCC[C@@H](C)Oc2ccc(NC(=O)Nc3c(C)noc3C)cc2C(=O)N([C@H](C)CO)C[C@@H]1C
→ .	.	.	-11.9
C[C@@H]1CN([C@@H](C)CO)S(=O)(=O)c2ccc(/C=C/c3ccccc3)cc2O[C@H]1CN(C)C(=O)NC1CCCCC1
→ .	.	.	5.3
O=C(Nc1cccc(Cl)c1)N1C[C@H]2[C@@H](c3ccccc31)[C@H](CO)N2C(=O)C1CC1
→ .	.	.	-23.2
C[C@@H]1CN([C@@H](C)CO)C(=O)c2cc(NS(=O)(=O)c3ccccc3)ccc2O[C@@H](C)CCCCO[C@@H]1CN(C)C(=O)Nc1cccc2ccccc12
→ .	.	.	-1.0
C[C@H](CO)N1C[C@H](C)[C@H](CN(C)S(=O)(=O)c2ccc(F)cc2)Oc2ccc(N(C)C)cc2C1=O
→ .	.	.	3.2
O=C(C[C@H]1C[C@@H]2c3cc(NC(=O)NC4CCCC4)ccc3O[C@@H]2[C@H](CO)O1)NCc1ccc(Oc2ccccc2)cc1
→ .	.	.	-0.5
COC(=O)[C@]12C[C@H](CC(=O)N3CCOCC3)C(=O)N(Cc3ccccc3)C1=C[C@H](C1CCCC1)O[C@@H]2C
→ .	.	.	0.8
C[C@H]1CN([C@@H](C)CO)C(=O)Cc2cc(NC(=O)C3CC3)ccc2O[C@@H]1CN(C)S(=O)(=O)c1ccccc1
→ .	.	.	-0.1
C[C@@H]1CN([C@H](C)CO)C(=O)c2cc(NC(=O)CCCN(C)C)ccc2O[C@@H](C)CCCCO[C@H]1CN(C)S(=O)(=O)c1cn(C)cn1
→ .	.	.	0.2
COc1cccc(-c2ccc3n(c2=O)C[C@H]2[C@H](CO)[C@@H](C(=O)N4CCCCC4)N(C)[C@@H]32)c1
→ .	.	.	-3.0
CN(C)CC#Cc1ccc([C@H]2[C@H]3CN(C(=O)c4ccccc4)CC(=O)N3[C@H]2CO)cc1
→ .	.	.	2.8
C[C@H](CO)N1C[C@H](C)[C@H](CN(C)Cc2ccc(C(F)(F)F)cc2)OCCCC[C@H](C)Oc2ccc(NS(=O)(=O)c3ccc(F)cc3)cc2C1=O
→ .	.	.	-0.2

3 compounds out of the list above, ordered by the number in AF4-AF9 inh, lowest first.
structure | AF4-AF9 inh
COc1cccc(-c2ccc3n(c2=O)C[C@H]2[C@H](CO)[C@@H](C(=O)N4CCCCC4)N(C)[C@@H]32)c1 | -3.0
COC(=O)[C@]12C[C@H](CC(=O)N3CCOCC3)C(=O)N(Cc3ccccc3)C1=C[C@H](C1CCCC1)O[C@@H]2C | 0.8
C[C@H](CO)N1C[C@H](C)[C@H](CN(C)S(=O)(=O)c2ccc(F)cc2)Oc2ccc(N(C)C)cc2C1=O | 3.2
